Bioassay records (PubChem BioAssay)
NPR1 antag – blocks ANP-stimulated signaling of human Npr1 receptor; HEK293 hNpr1 GloSensor cGMP, ANP-stimulated luminescence; Potency, µM (highest dose often 46.3 µM), inactives show at the top dose activity change, negative = inhibition, usual class: inhibitors; 76,000 compounds, 1.6% hits; P16066; active = well fitted inhibition curve with a large enough effect; inconclusive = small, poorly fitted or top-dose-only effect; inactive = no such curve, though single readings can be large or run the other way;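 also: nearly all actives have a fitted effect of over 60% in size; nearly all hits also lower the signal before the agonist is added; a reference antagonist and vehicle were the controls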
Target sequence (P16066 whole entry, looked up): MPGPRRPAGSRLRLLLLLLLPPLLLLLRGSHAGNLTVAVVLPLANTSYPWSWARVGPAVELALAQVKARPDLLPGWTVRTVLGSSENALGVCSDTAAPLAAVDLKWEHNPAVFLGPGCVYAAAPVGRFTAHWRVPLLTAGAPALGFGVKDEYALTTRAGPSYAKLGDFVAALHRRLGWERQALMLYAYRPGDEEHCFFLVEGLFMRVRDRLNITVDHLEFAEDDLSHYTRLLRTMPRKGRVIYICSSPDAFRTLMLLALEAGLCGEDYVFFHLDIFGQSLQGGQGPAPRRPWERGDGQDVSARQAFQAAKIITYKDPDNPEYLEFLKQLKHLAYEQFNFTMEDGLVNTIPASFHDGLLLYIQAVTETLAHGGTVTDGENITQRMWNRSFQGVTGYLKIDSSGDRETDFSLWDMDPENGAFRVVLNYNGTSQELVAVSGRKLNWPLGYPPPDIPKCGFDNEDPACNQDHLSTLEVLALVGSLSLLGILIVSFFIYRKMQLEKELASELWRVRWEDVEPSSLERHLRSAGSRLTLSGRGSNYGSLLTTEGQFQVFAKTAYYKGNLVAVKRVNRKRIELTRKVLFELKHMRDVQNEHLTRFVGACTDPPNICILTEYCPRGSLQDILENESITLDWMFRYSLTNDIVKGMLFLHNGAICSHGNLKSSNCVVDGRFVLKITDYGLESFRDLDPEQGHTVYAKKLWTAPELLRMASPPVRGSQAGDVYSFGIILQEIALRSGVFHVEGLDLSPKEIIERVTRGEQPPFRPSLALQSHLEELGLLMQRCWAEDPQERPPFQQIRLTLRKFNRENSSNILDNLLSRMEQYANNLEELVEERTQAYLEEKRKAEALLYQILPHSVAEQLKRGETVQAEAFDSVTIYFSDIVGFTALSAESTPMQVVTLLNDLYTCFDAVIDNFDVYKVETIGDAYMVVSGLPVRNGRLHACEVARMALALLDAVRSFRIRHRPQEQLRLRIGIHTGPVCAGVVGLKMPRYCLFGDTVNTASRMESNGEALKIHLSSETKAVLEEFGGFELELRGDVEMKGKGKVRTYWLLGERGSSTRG
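HEK293 cells stably expressing human Npr1 and cGMP GloSensor pGS-40F, loaded 2 h with 2% GloSensor reagent, given compound 30 min at room temperature. Luminescence read before and 20 min after 0.1 nM hNppA.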
Starred values were filed as active, the others as inactive; u = inconclusive; [ ] = another dose, or the depositor's remark. % is scaled to controls: 0 for no effect and ±100 for the full control effect; potency is read from the fitted curve at half-maximal effect.

NPR1 antag	SMILES
-4.7%	CCc1noc(-c2cccn3c(CNC(=O)c4cc(Cl)ccc4F)nnc23)n1
2.5%	O=C(NCC1CCCCC1)C1(CCO)CCN(c2ncccn2)C1 (stereo not drawn)
0.0%	Cc1ccccc1C(=O)N1CCC2(CC1)C(=O)NCN2Cc1ccc(Cl)cc1
-7.4%[70.6 µM]	Cc1cc(CNC(=O)c2cc(-c3ccccc3C)cc3c2OCCN3C)no1
-6.5%[70.6 µM]	CN1C(=O)C2(CCN(Cc3cccc4ccccc34)C2)c2ccccc21 (stereo not drawn)
-6.2%	O=C(CC1CCOC2(CCN(C3CCN(Cc4ccccc4)CC3)CC2)C1)N1CCCC1 (stereo not drawn)
0.3%	COc1cccc(CN2CCC3(CCCO3)CCC2=O)c1 (stereo not drawn)
-15.8%	O=C(Cc1cccc(Cl)c1)N1CCCC(c2nn(-c3cccc(Cl)c3)c(=O)[nH]2)C1 (stereo not drawn)
-2.8%	CNC(=O)[C@H]1C[C@H](Oc2ccccc2)CN1C(=O)NCc1ccccc1
-6.5%	COCCOC1CN(C2CCN(S(=O)(=O)c3ccccc3)CC2)C12CCCCC2 (stereo not drawn)
0.0%	CCCN1CCC2(CCN(C(=O)c3ccc(OC)cc3)CC2)Oc2ccccc21
-0.9%	Cc1ccc(N2CCC(NS(=O)(=O)c3cn(C)c(C)n3)C2=O)cc1C (stereo not drawn)
-17.2%	COC[C@@H]1CN(C(=O)c2cccc(F)c2)C[C@H]1C(N)=O
u	O=C1N(C2CCOCC2)C[C@H]2CN(Cc3ccc(C(F)(F)F)cc3)CCN12
1.7%[70.6 µM]	CC(=O)NC[C@H]1O[C@@H](Cc2nc(-c3ccc(OC(F)(F)F)cc3)no2)[C@H](O)[C@@H]1O
5.4%	O=C(NCC1CC1)c1cccc(OC2CN(C3CCOCC3)C2)c1
5.5%[70.6 µM]	O=C(N[C@@H]1CNCCC[C@H]1O)c1ccc(OCc2ccccc2)cc1
0.7%	CC(C)CNC(=O)C(NC(=O)CC(C)C)C1CCN(C(=O)c2cccc(Br)c2)CC1 (stereo not drawn)
4.4%	O=C1NCCCCCCN(Cc2ccncc2)[C@@H]2CN(S(=O)(=O)Cc3ccccc3)CC[C@@H]12
2.3%	CNC(=O)[C@@H]1CN(S(=O)(=O)C(C)C)C[C@H]1c1n[nH]c(C)n1
-0.3%	Cc1nc2c(c(-c3ccc(O)cc3)n1)CN(C(=O)c1ccc(F)cc1)CCC2
0.3%	COc1cc(CNC(=O)C2CCN(c3cn[nH]c(=O)c3)C2)cc(OC)c1 (stereo not drawn)
-0.3%	CCC(CC)NC(=O)c1ccc2c(c1)N(S(C)(=O)=O)CC2
2.1%	CCOc1ccc(C(=O)N2CCC3(CC2)CC(O)CCO3)cc1 (stereo not drawn)
1.1%	Cc1ccc2c(C(=O)N3CCN(c4ccc(F)cc4)CC3)cc(NC(=O)C(C)C)cc2n1
-1.4%[70.6 µM]	c1coc(-c2nnc([C@H]3CCN(Cc4c[nH]c5ccccc45)C3)o2)c1
u	O=C(c1cccc(F)c1)N1CCC2(CC1)N=C(c1ccc(Cl)cc1)NO2
-16.3%[70.6 µM]	CC(C)(Oc1nn(Cc2cccc(Cl)c2)c2ccccc12)C(=O)N1CCCC1
1.2%[70.6 µM]	CC(C)NC(=O)C1CCc2nnc(CNC(=O)C3CC3)n21 (stereo not drawn)
15.8µM*	COc1ccc(N2CCN(c3nc(C(=O)NCc4cccc(C)c4)cs3)CC2)cc1
16.6%[70.6 µM]	CC(=O)N1CCC(c2nn(-c3ccc(Cl)cc3)c(=O)[nH]2)CC1
0.7%	CS(=O)(=O)N1CCN(C(=O)C2CC(=O)N(c3n[nH]c4ccccc34)C2)CC1 (stereo not drawn)
2.8%	COc1cccc(CCC(=O)N2CCC3(CC2)N=C(c2ccccc2)NO3)c1
-0.5%	Cc1noc(C2CCCCCN2C(=O)NC2CCCC2)n1 (stereo not drawn)
1.4%	CN(C)c1nc2c(c(=O)[nH]1)CCN(C(=O)c1sccc1Cl)C2
0.5%	CCCN1CCCC2(CCN(S(=O)(=O)c3c(C)noc3C)C2)C1=O (stereo not drawn)
-25.0%	CCOC(=O)c1cccc(NC(=O)c2cnc(-c3ccccc3)nc2-c2ccncc2)c1
-0.7%[70.6 µM]	CC(=O)N1CCCC2(C1)CN(C)c1ccc(C(=O)NCC(C)C)cc12 (stereo not drawn)
3.2%	c1ccc(OCc2noc(CN3CCN(C(c4ccccc4)c4ccccc4)CC3)n2)cc1
-1.7%	COc1cccc(CN2C(=O)OC3(CCN(C(=O)c4scnc4C)CC3)C2(C)c2cccnc2)c1 (stereo not drawn)
2.7%	CN(C)C(=O)CCC[C@@H]1[C@H]2CCCN3CCC[C@@H](CN1C)[C@@H]23
0.5%	CCOC(=O)C1(Cc2ccccc2C(F)(F)F)CCNCC1
-1.1%[70.6 µM]	COc1ccccc1-c1cc(C(=O)NCc2cccnc2)c2c(c1)N(C)CCO2
-5.8%	Cc1ccc(C(=O)N2CCC(c3n[nH]c(=O)n3-c3ccccc3)CC2)cc1F
1.41µM*	COc1ccc(-c2noc(CC3CCN(C(=O)C4(c5ccc(OC)cc5)CC4)CC3)n2)cc1
1.7%[70.6 µM]	Fc1ccccc1CN1CCNc2cnc(OCc3cccnc3)cc2C1
-0.2%[70.6 µM]	CC1=C[C@@H](CNC(=O)CCC(=O)O)[C@H](C(C)C)C[C@H]1CC(=O)N(C)Cc1ccccc1
5.7%	O=C(NCc1ccccc1)N1CCC(N2C(=O)C3(CCCC3)C2c2ccccc2)CC1 (stereo not drawn)
u	O=C1[C@H]2CN(Cc3ccc(Cl)c(F)c3)C[C@H]2C(=O)N1Cc1ccc2c(c1)OCO2
5.6%	CCC(CC)C(=O)N1CC2CC(C1)[C@H]1CCCC(=O)N1C2 (stereo partly drawn)
25.1µM*	CC1=C[C@@H](CNC(=O)C2CC2)[C@H](C(C)C)C[C@H]1Cc1nc2ccccc2n1C
-14.9%	O=C(NC1CCCC1)N1CCC2(CC1)N(c1ccccc1)C(=O)CS2=O (stereo not drawn)
-22.2%	O=C(c1cn(CC2CCCO2)nn1)N1CCN(c2cccc(C(F)(F)F)c2)CC1 (stereo not drawn)
14.0%	CN1C[C@H](O)C[C@H]1c1nnc2n1CCN(C(=O)c1cc3ccccc3[nH]1)CC2
0.9%	COc1cc(OC)nc(NCc2cccnc2N2CCN(C(C)=O)CC2)n1
0.1%	O=C(c1ccccc1)N1CCC2(CCCCO2)CC1
-22.7%[70.6 µM]	Cc1ccccc1-c1cc(-c2cn[nH]c2)c2cncn2c1
13.3%	CCn1cc(CN2CCC(N3C(=O)C4(CCCCC4)C3c3ccccc3)CC2)cn1 (stereo not drawn)
-0.1%[70.6 µM]	CC1(CNc2ccccc2)COc2ccc(C(=O)NCCc3ccccc3)cc2N1 (stereo not drawn)
-8.3%	COC1CN(c2ccc(C)cc2)C12CCN(C(=O)CCc1nc3ccccc3s1)CC2 (stereo not drawn)

Other compounds:
NPR1 antag	SMILES
0.8%	CN(C)c1ccc(C(=O)N2Cc3[nH]cnc3CC2C(=O)O)cn1 (stereo not drawn)
0.2%	Cc1noc(C)c1C1CCCN1Cc1cn(-c2ccccc2)nn1 (stereo not drawn)
1.2%	COCCNC(=O)[C@H]1C[C@H](Oc2ccccc2)CN1C(=O)C(C)C
1.0%	COCCc1noc(C2Cc3ccccc3N2C(=O)Nc2ccc3c(c2)OCCO3)n1 (stereo not drawn)
8.3%	Cc1ccc(C(=O)N(C)CC2CCOCC2)cc1
-24.2%[70.6 µM]	COc1cc(NC(=O)C2=NO[C@@H]3CN(Cc4ccc(F)cc4)C[C@H]23)ccc1F
-11.9%	O=C(Nc1ccc(F)cc1)N1CC(c2nnc(-c3ccncc3)o2)C2(CCOCC2)C1 (stereo not drawn)
-0.8%	COc1cccc(C(=O)NC2CCN(c3nnc4ccccn34)CC2)c1
2.7%	CNC(=O)N1CCC(C2CCN(C(=O)c3ccc(F)cc3Cl)C2)CC1 (stereo not drawn)
-1.8%	Cn1cccc1C(=O)N1C[C@@H](NC(=O)NC2CCCCC2)C[C@H]1C(=O)N[C@H](Cc1c[nH]c2ccccc12)C(N)=O
-1.8%	COCc1nc(C2CCCN(C(=O)c3ccco3)C2)no1 (stereo not drawn)
-7.9%[70.6 µM]	O=C(c1ccccc1Cl)N1CCC(N2CCCNC2=O)CC1
1.3%	O=C(NCCc1csc(-c2cccnc2)n1)C1NCCc2[nH]cnc21 (stereo not drawn)
-9.4%	O=C(NCc1ccncc1)c1coc(CN2CCN(C/C=C/c3ccccc3)CC2)n1
0.9%	Cc1ccc(Cn2cc(-c3ccncc3)cc2C(=O)O)cc1
-3.3%	CCOc1ccccc1NC(=O)N1CCC(Oc2ncccc2C(=O)N2CCOCC2)C1 (stereo not drawn)
-1.5%	Cc1ccccc1C(=O)N1CCC2(CC1)N(c1ccccc1)C(=O)CS2(=O)=O
-22.2%	COc1ccc(C(CC(=O)N(C)Cc2cc(C3CC3)n[nH]2)c2ccccc2)cc1 (stereo not drawn)
-21.5%[70.6 µM]	COc1ccc(NC(=O)[C@@H]2C[C@@H](c3cccc(C(F)(F)F)c3)N(C)C2)cc1OC
-3.5%	COc1ccc(C(=O)N2CCCC(n3cc(-c4nc(C(C)C)no4)nn3)C2)cc1F (stereo not drawn)

Two records picked at random from those above, as already listed:
NPR1 antag	SMILES
0.9%	Cc1ccc(Cn2cc(-c3ccncc3)cc2C(=O)O)cc1
0.2%	Cc1noc(C)c1C1CCCN1Cc1cn(-c2ccccc2)nn1 (stereo not drawn)

Back to the main list; the 7 compounds before the break are reprinted first.
NPR1 antag	SMILES
-9.4%	O=C(NCc1ccncc1)c1coc(CN2CCN(C/C=C/c3ccccc3)CC2)n1
0.9%	Cc1ccc(Cn2cc(-c3ccncc3)cc2C(=O)O)cc1
-3.3%	CCOc1ccccc1NC(=O)N1CCC(Oc2ncccc2C(=O)N2CCOCC2)C1 (stereo not drawn)
-1.5%	Cc1ccccc1C(=O)N1CCC2(CC1)N(c1ccccc1)C(=O)CS2(=O)=O
-22.2%	COc1ccc(C(CC(=O)N(C)Cc2cc(C3CC3)n[nH]2)c2ccccc2)cc1 (stereo not drawn)
-21.5%[70.6 µM]	COc1ccc(NC(=O)[C@@H]2C[C@@H](c3cccc(C(F)(F)F)c3)N(C)C2)cc1OC
-3.5%	COc1ccc(C(=O)N2CCCC(n3cc(-c4nc(C(C)C)no4)nn3)C2)cc1F (stereo not drawn)
0.9%[70.6 µM]	COC(=O)CN1C(=O)[C@@H]2C[C@@H](O)CN2C2(CN(Cc3ccccc3F)C2)C1=O
1.4%	CN(C)C(=O)CN1C(=O)CO[C@H](c2ccc(NC(=O)c3cccc(C#N)c3)cc2)[C@H]1CO
5.4%	COc1ccc(OC)c(S(=O)(=O)N2CCC(OC3CCN(C)CC3)CC2)c1
2.7%	CC(C)C1CN(C(=O)CCn2ccc(=O)[nH]c2=O)CCC(=O)N1CC1CC1 (stereo not drawn)
-21.1%	CCC1=C(C(=O)OC)C(c2cccc(OC)c2)N2C(CC(=O)N3CCOCC3)=CSC2=N1 (stereo not drawn)
-1.5%	O=C(NCc1cccc(F)c1)C1CCN(c2cn[nH]c(=O)c2)C1 (stereo not drawn)
11.2µM*	Cc1ccccc1S(=O)(=O)N1CCCC(CCC(=O)Nc2cccc(Cl)c2)C1 (stereo not drawn)
2.7%	Cc1cnc(C(=O)N[C@@H]2CCC[C@@H]2C(=O)NCc2ccc3c(c2)OCO3)cn1
-1.5%	N#Cc1cccc(CN2CCCC(c3[nH]ccc3C(N)=O)C2)c1 (stereo not drawn)
0.3%	COc1ccc(NC(=O)Cn2nc3n(c2=O)CCCCC3)c(OC)c1
5.9%	CO[C@H]1C[C@@H](O)C12CCN(C(=O)CCc1cn3ccccc3n1)CC2
-0.8%	CCN1CCC2(CCC1=O)CN(Cc1cscn1)CCN2C (stereo not drawn)
-16.3%[70.6 µM]	C[C@H]1CCCN1C(=O)c1nnc(COc2cccc(C(F)(F)F)c2)n1-c1ccccc1
1.5%	CCn1ccnc1CN1CC[C@H](N2CCN(C)CC2)[C@H](CCC(=O)O)C1
-14.5%	O=C(Nc1ccc2ncnc(N3CCCC3)c2c1)c1ccc(F)cc1Cl
-4.1%	CNC(=O)[C@@H]1CN(C(=O)Cn2nc(C(F)(F)F)cc2C)C[C@H]1c1n[nH]c(C)n1
-7.0%	O=C([C@@H]1C[C@H](F)CN1C(=O)c1cccc(Cl)c1)N1CCCCC1
6.0%	O=C(O)CC1C(=O)NCCN1C1Cc2ccccc2C1 (stereo not drawn)
9.5%	CC(C)N1C(=O)C2(CCCC2)C1C(=O)N1CCCCC1 (stereo not drawn)
0.0%[70.6 µM]	Cn1cncc1-c1nnc([C@H]2CCN(CC3CC3)C2)o1
-2.8%	CCCNC(=O)CCC1CCN(c2cc(NCCC)ncn2)CC1
2.8%	Cc1cncc(NC(=O)CC2COc3ccc(C(=O)N(C)C)cc3N2C)c1 (stereo not drawn)
-3.8%	COc1ncccc1-c1cc2c(ccn2C(C)C)c(C(=O)NCc2c(C)cc(C)[nH]c2=O)n1
-3.8%	Cc1ccc(C(=O)N2CCc3onc(-c4cccc5ccccc45)c3C2)cc1
-0.2%	COc1nccnc1NC1CCN(C(=O)Cc2ccccc2)CC1
3.1%	CC(C)Oc1ccc(CN2CCc3nc(N4CCN(C)CC4)[nH]c(=O)c3CC2)cc1
u	O=C(Nc1cccc(F)c1)C1CCN(C(=O)c2ncn3c2COC(c2ccccc2)C3)CC1 (stereo not drawn)
11.2µM*	CC(C)c1cccc(NC(=O)C2CCN(C(=O)c3ncn4c3COC(c3ccc(F)cc3)C4)CC2)c1 (stereo not drawn)

Some of the compounds tested (hit frequency here may not be typical).
